KCNQ2 inh: KCNQ2 potassium channel inhibitors, primary screen, cell-based, CHO-K1, FluxOR thallium flux, B-score (AID 2156). Potassium voltage-gated channel subfamily KQT member 2 (Rattus norvegicus), O88943. 20 min; stronger effect = lower value; only compounds with negative scores are shown here; some inactives read as strong as hits. B-score at 10 µM. 310,000 compounds, 1.1% hits;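 active means fluorescence ratio B-score at most minus 3 library SDs, with starting brightness B-score within 2 library SDs, cut at about -5.5 in these data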
Target sequence (O88943 whole entry, looked up): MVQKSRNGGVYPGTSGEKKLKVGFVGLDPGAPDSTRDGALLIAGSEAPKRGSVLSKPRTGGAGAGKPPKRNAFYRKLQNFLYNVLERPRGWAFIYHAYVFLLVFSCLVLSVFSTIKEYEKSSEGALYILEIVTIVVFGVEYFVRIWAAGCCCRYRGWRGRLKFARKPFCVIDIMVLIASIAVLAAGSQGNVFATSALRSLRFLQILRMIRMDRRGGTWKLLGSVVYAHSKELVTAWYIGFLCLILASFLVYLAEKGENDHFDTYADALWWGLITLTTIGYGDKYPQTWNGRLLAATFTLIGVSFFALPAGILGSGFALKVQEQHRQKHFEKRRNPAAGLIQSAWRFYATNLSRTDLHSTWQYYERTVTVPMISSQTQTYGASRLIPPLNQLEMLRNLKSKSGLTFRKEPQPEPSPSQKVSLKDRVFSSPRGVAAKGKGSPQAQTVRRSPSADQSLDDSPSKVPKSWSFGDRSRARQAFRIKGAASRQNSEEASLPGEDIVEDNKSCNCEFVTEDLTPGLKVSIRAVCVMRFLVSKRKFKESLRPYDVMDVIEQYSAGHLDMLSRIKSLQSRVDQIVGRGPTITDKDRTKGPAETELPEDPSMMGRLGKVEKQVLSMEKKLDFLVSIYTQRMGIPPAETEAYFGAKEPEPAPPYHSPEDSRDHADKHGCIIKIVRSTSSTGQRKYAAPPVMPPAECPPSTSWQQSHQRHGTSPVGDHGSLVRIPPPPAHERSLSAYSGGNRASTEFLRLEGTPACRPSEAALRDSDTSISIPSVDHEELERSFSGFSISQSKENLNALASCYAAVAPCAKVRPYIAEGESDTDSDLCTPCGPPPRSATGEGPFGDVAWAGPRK
KCNQ2 inh baseline: recorded beside KCNQ2 inh, whose call it bears; B-score; measured here: initial fluorescence intensity artifact check;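 brightness before thallium and not channel activity; 0 = typical well and far values either way flag optical interference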
Active calls of the source: *; i = inactive. A portion of the library. The share of hits here may be higher or lower than overall.

no.	KCNQ2 inh	KCNQ2 inh baseline	SMILES
1	i	-0.37	O=C(NCCC1=CCCCC1)C1CCCN(c2nc3ccccc3o2)C1 (stereo not drawn)
2	i	0.07	Cc1nn(-c2ccccc2)c2sc(C(=O)N(Cc3ccco3)C(C)C(=O)NC(C)(C)C)cc12 (stereo not drawn)
3	i	-1.85	CSc1ccccc1C(=O)NCc1ccccc1C
4	i	-0.02	CC(CN1CCOCC1)OC(=O)c1ccccc1Cl (stereo not drawn)
5	i	0.17	COc1ccc(CNC(=O)C(=O)NCC2OCCN2C(=O)c2ccc(OC)cc2)cc1 (stereo not drawn)
6	i	21.4	C[n+]1ccc(/C=C/c2c[nH]c3ccccc23)cc1
7	i	-2.03	O=c1[nH]c(Cc2ccc(Cl)cc2)nc2ccccc12
8	i	2.26	O=C(Cc1ccccc1[N+](=O)[O-])NCc1ccncc1
9	i	-2.63	OCCN(Cc1ccccc1)C(=S)Nc1ccc(Cl)cc1Cl
10	i	-0.01	CCCCC(=O)Nc1sc(C(=O)N(CC)CC)c(C)c1C(=O)OC
11	i	2.15	O=C(CSc1nc(-c2ccccc2)c(-c2ccccc2)o1)NC1CCS(=O)(=O)C1 (stereo not drawn)
12	i	-1.69	Cc1ccc(S(=O)(=O)Nc2ccc(-c3cn4ccc(C)cc4n3)cc2)cc1
13	i	-1.71	CCCP(=O)(CC(=O)N(CC)CC)c1ccccc1 (stereo not drawn)
14	i	2	Cc1ccc(C(=O)NCC(=O)NCC(=O)OCc2ccc(Cl)cc2)cc1
15	i	1.09	O=C(O)CSc1nnc(C2COc3ccccc3O2)n1-c1ccccc1 (stereo not drawn)
16	i	-0.08	COc1ccc(CN2CCNC(=O)C2CC(=O)N(C)CC2CCOCC2)c(F)c1 (stereo not drawn)
17	i	1.49	CCN(CC(=O)Nc1ccccc1C(F)(F)F)C(=O)c1cc2c(s1)CCCCC2
18	i	-0.01	COCCNC(=O)c1cccc(NS(=O)(=O)c2cccc3cccnc23)c1
19	i	-0.69	COc1ccccc1CNc1cc(C)ccc1C
20	i	-2.12	O=C(NCCc1ccc(Cl)cc1Cl)c1cncc(Br)c1
21	i	-0.67	O=C(CN1CCN(c2ccccn2)CC1)Nc1ccc(Oc2ccccc2)cc1
22	i	-2.62	COc1ccc(-n2c(SCC(=O)N3CCC(C(=O)O)CC3)nc3ccccc3c2=O)cc1OC
23	i	-0.61	CC1S/C(=C(\C#N)C(=O)NCc2ccco2)N(c2ccc(F)cc2)C1=O (stereo not drawn)
24	i	0.93	CCOC(=O)N1CCN(S(=O)(=O)c2ccc(C(=O)Nc3sc4c(c3C#N)CC(C)(C)NC4(C)C)cc2)CC1
25	i	-0.87	COc1ccc(C2C(C#N)=C(N)OC3=C2C(=O)CCC3)cc1Cn1nc(C)c([N+](=O)[O-])c1C (stereo not drawn)
26	i	-0.37	Cc1cc(NC(=O)Cc2c(F)cccc2Cl)no1
27	i	-0.07	COCCN(Cc1ccccc1)C(=O)c1cc(S(=O)(=O)N2CCCCCC2)ccc1OC
28	i	-0.21	COc1ccc(NC(=O)c2cc(-c3ccc(C)c(C)c3O)n[nH]2)cc1Cl
29	i	0.01	CC(C)OC(=O)NCCOC(=O)Nc1ccc(Cl)cc1
30	i	-0.56	CCOC(=O)Cn1nc(NC(=O)c2ccc(C(=O)OC)cc2)cc1C
31	-8.14*	0.84*	CC(C)n1c(NCc2c[nH]c3ccccc23)nc2ccccc21
32	i	2.46	COc1cc(S(=O)(=O)N2CCN(c3ccccc3F)CC2)ccc1Cl
33	i	2.45	COC(=O)c1ccccc1NC(=O)c1cccs1
34	i	-0.02	CC1=C(C(=O)N2CCOCC2)C(c2cccc3ccccc23)NC(=S)N1 (stereo not drawn)
35	i	0.76	O=C(O)CCC(=O)N1N=C(c2cccs2)CC1c1cn(-c2ccccc2)nc1-c1ccccc1 (stereo not drawn)
36	i	0.68	Cc1nn(CC(=O)NCc2cccnc2)c(=O)c2ccccc12
37	i	0.47	CCCNC(=O)c1ccc(Cn2c(=S)[nH]c3c([nH]c4ccc(OC)cc43)c2=O)cc1
38	i	-0.17	O=C(Nc1ccc(Br)cc1)C1CCCN(S(=O)(=O)c2cccnc2)C1 (stereo not drawn)
39	i	-0.93	CN(C)S(=O)(=O)c1ccc(C(=O)Nc2nnc(-c3ccc4c(c3)CCCC4)o2)cc1
40	i	0.07	Cc1cc(-c2ccc(C(C)C)c(S(=O)(=O)NCCN3CCC(C)CC3)c2)on1
41	i	0.79	CCOc1ccc(S(=O)(=O)NC2CCCC2)cc1
42	i	0.59	Fc1cccc(Cc2noc(CN3CCCN(C4Cc5ccccc5C4)CC3)n2)c1
43	-5.85*	3.11*	COc1ccccc1NC(=O)c1sc2ncn(Cc3ccccc3C)c(=O)c2c1C
44	i	0.86	COCCn1c(SCCOc2ccccc2)nc2ccccc2c1=O
45	i	0.61	Cc1cccnc1NC(=O)Nc1ccc(Cl)cc1
46	i	0.01	CCN1CCN(C(=O)CSCc2nc(-c3ccc(OC)c(OC)c3)oc2C)CC1
47	i	0.44	CCOc1ccc(N(CC(=O)NCc2ccc(F)cc2)S(=O)(=O)c2c(C)noc2C)cc1
48	i	0.68	Cc1c(C#N)c(SCC(N)=O)nc2c1CCCC2
49	i	-0.03	O=C(NCCc1ccc(F)cc1)Nc1ccccc1Cl
50	i	-1.32	CCOC(=O)N1CCN(C(=O)C2CCN(S(=O)(=O)c3ccc(NC(C)=O)cc3)CC2)CC1
51	i	0.54	COc1ccccc1NC(=O)NCCN1CCN(c2cccc(Cl)c2)CC1
52	i	0.17	CCOC(=O)C(=O)C1=C(N2CCOCC2)/C(=C\c2cccc([N+](=O)[O-])c2)CC1
53	i	-0.02	CC(C)C[C@H](NC(=O)[C@@H]1Cc2ccccc2CN1)C(=O)Nc1ccc(C(C)C)cc1
54	i	-1.56	COC(=O)c1cc(C(=O)N2CCOCC2)cc([N+](=O)[O-])c1
55	i	1.39	CC(=O)NCCc1ccc(S(=O)(=O)N(C)C2CCS(=O)(=O)C2)cc1 (stereo not drawn)
56	i	-1.82	Cc1oc(-c2ccccc2F)nc1CS(=O)CC(=O)NCc1ccc(Cl)cc1 (stereo not drawn)
57	i	-0.84	CCOC(=O)N1CCN(S(=O)(=O)c2ccc3c4c(cccc24)C(=O)N3)CC1
58	i	-1.1	CC(C)Oc1ccccc1/C=N/n1nnnc1N
59	i	-0.59	CC1=C(C)CC(C(=O)NCc2ccccc2F)C(C(=O)O)C1 (stereo not drawn)
60	i	1.38	COc1ccc(NC(=O)C2CC(=O)OC2(C)C)cc1 (stereo not drawn)

The list continues:
no.	KCNQ2 inh	KCNQ2 inh baseline	SMILES
61	i	3.49	O=C(CSc1cn[nH]n1)Nc1ccc(Cl)cc1Cl
62	i	-1.39	O=C(NCc1ccco1)/C(=C/C=C\c1ccccc1)NC(=O)c1ccc(Br)o1
63	i	0.58	COc1ccc(NC(=O)CSc2nnc(NC(=O)C3CC3)s2)cc1OC
64	i	-1.05	CCOC(=O)c1sc(=NC(=O)c2ccc(Cl)s2)n(C)c1C
65	i	0.57	COc1ccccc1C(=O)NCCCNc1ccc([N+](=O)[O-])cc1
66	i	1.56	CC(C)(C)C(=O)COC(=O)CNC(=O)c1ccc(Oc2ccccc2)cc1
67	i	-1.14	COc1ccc(NC(=O)CSc2nnnn2C2CC3C=CC2C3)cc1 (stereo not drawn)
68	i	-1.35	COc1ccc(C(=O)n2cnnc2N)cc1
69	i	-2.95	COc1ccc(C(Nc2cccc([N+](=O)[O-])c2)P(=O)(OC(C)C)OC(C)C)cc1 (stereo not drawn)
70	i	1.39	CC(=O)Nc1cccc(NC(=O)c2ccccc2OCc2c(C)noc2C)c1
71	i	-0.51	Cc1c(Cc2ccccc2)c(=O)oc2c(C)c(OCC(=O)NCC3CCC(C(=O)O)CC3)ccc12 (stereo not drawn)
72	i	0.76	COc1ccc(NC(=O)CSc2nnc(Cc3cccn3C)n2-c2ccc(OC)cc2)cc1
73	i	0.25	CCOc1ccc(-n2c(O)c(/C=N/NC(=O)C3COc4ccccc4O3)c3ccccc3c2=O)cc1 (stereo not drawn)
74	i	-0.29	COc1ccc(CCC(=O)NCCc2ccc(Cl)cc2)cc1
75	i	1.28	OCCn1c(SCCOc2ccccc2F)nc2ccccc21

Seven records drawn at random from those above:
no.	KCNQ2 inh	KCNQ2 inh baseline	SMILES
64	i	-1.05	CCOC(=O)c1sc(=NC(=O)c2ccc(Cl)s2)n(C)c1C
70	i	1.39	CC(=O)Nc1cccc(NC(=O)c2ccccc2OCc2c(C)noc2C)c1
67	i	-1.14	COc1ccc(NC(=O)CSc2nnnn2C2CC3C=CC2C3)cc1 (stereo not drawn)
73	i	0.25	CCOc1ccc(-n2c(O)c(/C=N/NC(=O)C3COc4ccccc4O3)c3ccccc3c2=O)cc1 (stereo not drawn)
74	i	-0.29	COc1ccc(CCC(=O)NCCc2ccc(Cl)cc2)cc1
66	i	1.56	CC(C)(C)C(=O)COC(=O)CNC(=O)c1ccc(Oc2ccccc2)cc1
62	i	-1.39	O=C(NCc1ccco1)/C(=C/C=C\c1ccccc1)NC(=O)c1ccc(Br)o1

The main list resumes, repeating the 3 entries before the break.
no.	KCNQ2 inh	KCNQ2 inh baseline	SMILES
73	i	0.25	CCOc1ccc(-n2c(O)c(/C=N/NC(=O)C3COc4ccccc4O3)c3ccccc3c2=O)cc1 (stereo not drawn)
74	i	-0.29	COc1ccc(CCC(=O)NCCc2ccc(Cl)cc2)cc1
75	i	1.28	OCCn1c(SCCOc2ccccc2F)nc2ccccc21
76	i	0.04	CC1CCN(S(=O)(=O)c2ccc(Cl)cc2)CC1
77	i	-0.12	CCN(CC)S(=O)(=O)c1ccc(C(=O)Oc2cc(C)[nH]c(=O)c2[N+](=O)[O-])cc1
78	i	0.56	COc1ccc(CC(=O)NC(C)c2ccc(S(N)(=O)=O)cc2)cc1S(=O)(=O)N1CCOCC1 (stereo not drawn)
79	i	0.02	Cn1c(-[n+]2c(-c3ccccc3)cc(-c3ccccc3)cc2-c2ccccc2)nc2c([N+](=O)[O-])cccc21
80	i	1.23	CNS(=O)(=O)c1cc(C(=O)NCc2ccco2)ccc1Cl
81	i	0.83	CCc1ccccc1-n1c(SCC(=O)Nc2ccc3c(c2)OCCO3)nc2[nH]ncc2c1=O
82	i	-0.1	O=C(Cn1cnc2cc([N+](=O)[O-])ccc2c1=O)NCCc1ccc(Cl)cc1
83	i	-0.22	CCN(CC(=O)NCc1ccc(F)cc1)Cc1nc2ccccc2c(=O)[nH]1
84	i	-0.07	CCCc1cc(=O)n2[nH]c(-c3ccc(C)cc3)cc2n1
85	i	-0.89	CCOCCn1c(CN2CCN(c3ccc(F)cc3)CC2)nc2c1c(=O)n(C)c(=O)n2C
86	i	2.18	Cc1cc(C)c(NC(=O)CSc2ccc(-c3cccnc3)nn2)c(C)c1
87	i	-0.34	O=C(CSc1ncc(-c2ccccc2)[nH]1)Nc1ccccc1
88	i	2.58	COc1ccc(S(=O)(=O)Nc2ccc3c(c2)N(C(C)=O)CCC3)cc1OC
89	i	-0.96	CCOC(=O)c1ccc2nc(CCC(=O)N[C@H](C(=O)OC)C(C)C)c(=O)n(CC)c2c1
90	i	-2.81	CC(=O)Nc1ccc(C(=O)OCC(=O)NCc2ccccc2)cc1
91	i	-0.9	Cc1ccc(C(=O)NCC(=O)OCC(=O)N(CC(C)C)c2c(N)n(Cc3ccccc3)c(=O)[nH]c2=O)cc1
92	i	0.21	CCCN1C2CCCC1CC(NC(=O)c1ccccc1F)C2 (stereo not drawn)
93	i	0.28	Cc1ccccc1CNC(=O)Cc1ccccc1[N+](=O)[O-]
94	i	-0.23	CCn1c(-c2ccccc2)csc1=Nc1ccc(O)cc1
95	i	-1.51	Cc1ccc(-n2ncc3c2CCCC3NC(=O)CSc2ccccn2)cc1C (stereo not drawn)
96	i	-1.12	C=CCn1cnc2scc(-c3ccc(C)c(C)c3)c2c1=O
97	i	-1.31	Cc1cc(C)nc(SCc2nc(N)nc(-c3ccccc3O)n2)n1
98	i	-1.07	CCOC(=O)c1c(NC(=O)CN2CCOCC2)sc(C(=O)NC)c1C
99	i	1.66	Cc1ccc(NC(=O)c2cc(NC(=O)c3ccccc3C(=O)O)ccc2N2CCCCC2)cc1
100	i	-0.71	Cc1c(C(=O)c2ccccc2)c(=O)n(C)c(=O)n1C
101	i	-1.12	COc1ccc(NC(=O)CSc2nnc(C(C)C)n2N)cc1
102	i	0.56	O=C(NCC1CCCO1)c1cc2c(s1)CCC2 (stereo not drawn)
103	i	1.95	COc1ccc(-n2nc(C(=O)NCC(=O)Nc3cc(C)ccc3OC)c3ccccc3c2=O)c(OC)c1
104	i	-2.4	O=C(CCNC(=O)C1CCN(S(=O)(=O)c2ccc(F)cc2)CC1)NCc1ccncc1
105	i	1.47	O=C(O)CSc1c(-c2ccccc2)c2cc(Cl)ccc2[nH]c1=O
106	i	-1.16	COc1ccc(-c2nnc(SC)nc2-c2ccc(OC)c([N+](=O)[O-])c2)cc1[N+](=O)[O-]
107	i	0.04	N#Cc1c(N2CCN(C(=O)c3ccccc3Cl)CC2)nc(-c2ccccc2)c2c1CCCC2
108	i	-0.31	OC(c1ccc(OCc2ccccc2)cc1)c1nnc(-c2ccccc2)o1 (stereo not drawn)
109	i	0.32	O=[N+]([O-])c1ccc2[nH]c(O)c(N=NC3CS(=O)(=O)CC3O)c2c1 (stereo not drawn)
110	i	0.26	CC1CCN(CC(=O)Nc2ccccc2-c2ccccc2)CC1
111	i	0.03	O=S1(=O)CCC(SCc2nc3sccn3c2Br)C1 (stereo not drawn)
112	i	0.34	CCOC(=O)c1oc2ccc(S(=O)(=O)N3CCC(C)CC3)cc2c1C
113	i	-1.71	CCC(=O)Nc1nc(-c2cc([N+](=O)[O-])cs2)cs1
114	i	0.68	CC1(C)C2CC=C(/C=N/NC(=O)c3ccc(Cl)cc3)C1C2 (stereo not drawn)
115	i	0.69	C=CCOC(=O)/C=C/C(=O)NC(N)=O
116	i	3.59	CCN(CC)S(=O)(=O)c1ccc(NC2=NS(=O)(=O)c3ccccc32)cc1
